GLA inh pH 4.5 = inhibitors of human alpha-galactosidase A at pH 4.5; P06280; purified enzyme, 4-MU-alpha-Gal fluorescence, pH 4.5; activity change, negative = inhibition, % at 105 µM; 230,000 tested, under 10 active; AID 1467; inconclusive = small, poorly fitted or top-dose-only inhibition, or a rising curve; inactive = flat fitted curve, though single readings scatter; no compound was filed as active;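 also: 0% = full activity with enzyme and -100% = basal without enzyme; dose as in the result columns while the protocol names 77 µM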
Rango-impB inh = inhibitors of Rango-importin beta complex formation. actives 0.031% (n = 340,000). Q14974. Rango CFP/YFP FRET sensor + importin beta, 45 min. AID 540263. Potency, µM (doses to about 92.2 µM), inactives show top-dose inhibition of complex formation; active = rising FRET ratio curve, often small or poorly fitted; inconclusive = mostly compound fluorescence or quenching in the first reads; inactive = flat curves in all reads;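 also: potency is read from the fitted curve at half-maximal effect; 0% = DMSO wells and 100% = buffer wells lacking importin beta; nearly all actives have a fitted effect of over 15% in size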
Target sequence (Q14974 whole entry, looked up): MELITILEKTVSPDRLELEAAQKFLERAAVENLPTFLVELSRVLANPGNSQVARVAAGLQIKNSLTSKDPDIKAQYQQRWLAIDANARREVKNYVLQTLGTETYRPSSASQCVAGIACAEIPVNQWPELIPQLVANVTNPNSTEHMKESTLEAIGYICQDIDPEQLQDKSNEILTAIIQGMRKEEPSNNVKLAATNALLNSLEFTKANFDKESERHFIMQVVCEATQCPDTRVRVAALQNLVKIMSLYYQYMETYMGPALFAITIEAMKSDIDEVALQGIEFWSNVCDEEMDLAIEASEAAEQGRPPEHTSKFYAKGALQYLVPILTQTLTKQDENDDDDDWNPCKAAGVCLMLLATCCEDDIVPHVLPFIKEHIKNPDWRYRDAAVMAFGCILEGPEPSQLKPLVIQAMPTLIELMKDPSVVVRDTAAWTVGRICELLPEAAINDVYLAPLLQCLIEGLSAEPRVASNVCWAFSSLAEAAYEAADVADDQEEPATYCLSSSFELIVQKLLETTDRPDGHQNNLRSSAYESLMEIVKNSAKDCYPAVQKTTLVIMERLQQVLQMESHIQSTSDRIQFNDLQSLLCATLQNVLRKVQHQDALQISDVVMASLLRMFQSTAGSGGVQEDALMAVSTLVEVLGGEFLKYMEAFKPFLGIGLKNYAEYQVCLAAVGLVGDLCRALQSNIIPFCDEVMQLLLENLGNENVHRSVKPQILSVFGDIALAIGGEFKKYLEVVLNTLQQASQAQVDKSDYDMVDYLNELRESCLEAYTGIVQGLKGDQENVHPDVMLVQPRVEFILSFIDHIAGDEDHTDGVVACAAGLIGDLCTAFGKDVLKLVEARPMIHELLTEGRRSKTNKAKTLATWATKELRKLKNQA
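Inhibition scored from the CFP 486 nm/YFP 530 nm FRET ratio 45 min after adding 0.125 microM importin beta to 50 nM Rango biosensor preincubated 5 min with compound (room temperature, PBS with DTT, Tween-20, BSA). No-importin wells as positive control.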
Rango release inh = inhibition of RanGTP-driven Rango-importin beta dissociation. O95149+P62826. Biochemical FRET Rango-importin beta, RanGTP-induced dissociation. Potency, µM (doses to about 46.1 µM), for inactives: top-dose activity change, negative = inhibition. actives 0.071% (n = 340,000); active means falling FRET ratio curve, often poorly fitted, with flat reads before Ran was added; inconclusive means other falling curves, or compound fluorescence or quenching; inactive means flat or rising ratio curve;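 also: potency is read from the fitted curve at half-maximal effect; % of control where 0% means no effect; nearly all actives have a fitted effect of over 45% in size; -100% = wells without RanGTP and RCC1; the record marks most hits as doubtful in a second field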
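Two FRET readings bracket the reaction: one 5 min after compound meets Rango–importin beta, another 45 min after RanGTP-RCC1 (0.6 uM Ran, 0.2 uM RCC1, 2 mM GTP) is added. Only the second defines inhibition.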
miR-21 reporter = miR-21 reporter, rising signal | HeLa miR-21 FLuc reporter, luciferase, 48 h | Potency, µM (top dose mostly 38.3 µM), without a hit: top-dose reporter change, positive = more light | 340,000 tested, under 10 active | AID 2288; active = well fitted rising curve with a large enough effect; inconclusive = small, poorly fitted or top-dose-only effect; inactive = no such curve, though single readings can be large or run the other way;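 also: % of control where 0% means no effect; miR-21 action dims this reporter so a rising signal means less miR-21 action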
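HeLa miR-21-FLuc reporter line, endogenous miR-21; 2000 cells/well in DMEM/10% FBS; compound titration up to ~40uM final, 48 h, 37 degree Celsius; luciferase detection reagent, 15 min lysis, CCD luminescence.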
* hit, by the source's call; ? = inconclusive; / = not tested or not shown; & = joins results of further samples.

SMILES	GLA inh pH 4.5	Rango-impB inh	Rango release inh	miR-21 reporter
CCN(c1ccccc1)S(=O)(=O)c1ccc(OC)c(NC(=O)CNC)c1	3	-0.4%	-10%	20%
COc1ccc(S(N)(=O)=O)cc1C(N)=O	0	-0.3%	1%	1%
N/C(CSc1ccccn1)=N\OCc1c(Cl)cccc1Cl	8	0.3%	33%	-28%
CCOC(=O)c1ccccc1NC(=O)COc1cc(=O)n(CC)c2ccccc12	3	0.2%	3%	-3%&1%
CC(=O)c1cc(-c2ccccc2)n(CCC(=O)NC2CCCCC2)c1C	?	2.4%	-15%	-4%&8%
CCOc1ccc(-n2nc3ccc(N)cc3n2)cc1	/	?	5.2µM*	22%
Cc1ccccc1Nc1cc(C)c2c(O)cccc2n1	-2	-1.6%	-7%	-22%
CCOC(=O)c1c(C)n(CC(O)CN(CC)CC)c2cc(Br)c(OC)cc12 (stereo unspecified)	-10	0.2%	0%	-27%
COC(=O)c1c(NC(=O)CN2C(=O)NC(CCc3ccccc3)C2=O)sc2c1CCCCC2 (stereo unspecified)	-4	-4.5%	-4%	7%
CCOc1ccc(S(=O)(=O)NCCC(=O)NCC(c2ccc(F)cc2)N2CCOCC2)cc1 (stereo unspecified)	/	-2.3%	-5%	/
COc1ccc(OC)c(NC(=O)C(=O)c2cn(CC(=O)N3CCCC3)c3ccccc23)c1	/	?	38%	-3%
CC(C)(C)c1ccc(C(=O)Nc2nnc(Cc3c[nH]c4ccccc34)s2)cc1	1	-0.7%	?	17%
CC(C)(C)C(=O)Nc1cc2c3c(c1)CC(=O)N3CCC2	/	7.0%	?	-1%
COc1ccc(C(=O)Nn2c(SCC(=O)NC3CCCC3)nc3ccccc3c2=O)cc1	6	-3.0%	-4%	13%
CCOc1ccccc1OCC(=O)Nc1c(C)n(C)n(-c2ccccc2)c1=O	/	6.8%	16%	/
Cc1cc(C(=O)OCC(=O)Nc2cccc(S(=O)(=O)N(C)C)c2)c2ccccc2n1	-11	1.4%	-5%	9%
Cc1cccc(C)c1NC(=S)NC(=O)c1ccccc1F	2	?	10%	0%
CCC(C)(C)NC(=O)/C=C/c1ccccc1[N+](=O)[O-]	1	5.4%	17%	-14%
O=C(c1cccc(OC2CCN(C3CCCC3)CC2)c1)N1CCCCCCC1	4	0.9%	-1%	2%
C[C@H](CO)N1C[C@H](C)[C@@H](CN(C)C(=O)NC2CCCCC2)Oc2ccc(NS(C)(=O)=O)cc2C1=O	/	-4.2%	10%	/
CC(C)(c1ccccc1)c1ccc(OCC(O)CNC2CCN(Cc3ccccc3)CC2)cc1 (stereo unspecified)	-18	2.5%	0%	?
CCOC(=O)c1sc(NC(=O)c2ccco2)c(C#N)c1C	-2	?	-9%	-6%
COc1ccc(C(=O)NNC(=O)OC(C)(C)C)cc1	1	3.6%	-11%	-3%
CC(=O)c1c(-c2ccccc2)c2ccccc2[nH]c1=O	5	0.0%	-7%	6%
CCOC(=O)/C=C/C(=O)N1CCc2ccccc21	8	-0.5%	1%	4%

Rango release inh: entries above that show a hit
SMILES	GLA inh pH 4.5	Rango-impB inh	Rango release inh	miR-21 reporter
CCOc1ccc(-n2nc3ccc(N)cc3n2)cc1	/	?	5.2µM*	22%

Further records.
SMILES	GLA inh pH 4.5	Rango-impB inh	Rango release inh	miR-21 reporter
Cc1ccc(S(=O)(=O)N(CC(=O)NCc2cccnc2)C2CCCCC2)cc1	1	2.6%	6%	-1%
O=c1oc2cccnc2n1CCS(=O)(=O)c1ccc(F)cc1	5	-2.9%	7%	7%
CC(C)(C)NC(=O)Cn1cnc2cc([N+](=O)[O-])ccc2c1=O	8	-3.7%	0%	1%
Cc1cc(NC(=S)N(CCN2CCOCC2)Cc2ccccc2F)ccc1Cl	-4	-3.6%	-17%	-2%
Cc1ccc(NC(=O)CN(C)C(C)C(=O)N2CC(C)CC(C)C2)cc1 (stereo unspecified)	/	-1.2%	0%	/
Cc1ccc(S(=O)(=O)N2CCC3(CC2)OCCO3)s1	/	-1.9%	6%	-4%
CC(=O)Nc1ccc(NC(=O)C(C)OC(=O)CC2CCCC2)cc1 (stereo unspecified)	/	1.2%	17%	/
Cc1cccc(N(C(=O)Nc2ccc(Cl)cc2)C2=NCC(C)S2)n1 (stereo unspecified)	11	-1.9%	15%	-19%
Cc1cccc(CC(=O)N2CCC(N3CCC(C(=O)N4CCOCC4)CC3)CC2)c1	8	0.1%	-1%	0%
O=C(Cn1cncn1)c1ccccc1	0	0.0%	2%	3%
COc1ccc(N(C)S(=O)(=O)c2ccc3c(c2)NC(=O)CO3)c(OC)c1	/	-0.9%	-2%	1%
O=C(NCCCn1ccnc1)C(=O)NC1CCCCC1	7	-1.5%	-2%	2%
CCN(CC)S(=O)(=O)c1cc(C)ccc1NC(=S)Nc1cccnc1	-10	2.5%	-5%	21%
O=C(NC1CCN(C(=O)Nc2ccccc2)CC1)C1CCCCC1	1	-3.6%	-6%	-3%
O=C(NCc1ccc[n+](CCCCS(=O)(=O)[O-])c1)c1ccc(OC(F)F)cc1	0	/	/	0%
C[C@@H](NC(=O)[C@@H]1Cc2ccccc2CN1)C(=O)Nc1ccc2c(c1)OCO2	/	0.0%	-1%	-29%
CCOc1ccccc1NC(=O)Nc1ccc(OC)nc1	/	-0.3%	6%	-11%
O=C(Nc1c(-c2ccccc2)nc2c(Br)cc(Br)cn12)c1ccco1	0	0.0%	0%	-10%
CCOC(=O)/C=C1\SCC(=O)N1CC(O)CN1C(=O)CS/C1=C\C(=O)OCC	6	-0.5%	-2%	0%
O=C1C2C(C(=O)N1Cc1cccnc1)C1C=CC2C12CC2 (stereo unspecified)	-7	0.6%	16%	0%
CC(=O)c1ccccc1Oc1ncnc(N)c1[N+](=O)[O-]	/	0.6%	6%	-6%
CC1CCc2c(nc3ncnn3c2NCCN(C)C)C1 (stereo unspecified)	2	-2.1%	20%	0%
CCOC(=O)Nc1ccc2c(c1)nc(CN1CCCCC1)n2C	-2	/	/	-15%
Cc1ccc(C(=O)OCC(=O)NC(=O)c2ccc(C(C)(C)C)cc2)c(O)c1	/	3.2%	0%	/
CC(C)CCn1nnnc1CN1CCN(C(c2ccccc2)c2ccccc2)CC1	-9	-6.1%	-4%	19%

Some of the entries so far, with values under each structure.
Every second line gives: GLA inh pH 4.5, Rango-impB inh, Rango release inh, miR-21 reporter
Cc1ccc(S(=O)(=O)N(CC(=O)NCc2cccnc2)C2CCCCC2)cc1
 : 1, 2.6%, 6%, -1%
O=c1oc2cccnc2n1CCS(=O)(=O)c1ccc(F)cc1
 : 5, -2.9%, 7%, 7%
CC(C)(C)NC(=O)Cn1cnc2cc([N+](=O)[O-])ccc2c1=O
 : 8, -3.7%, 0%, 1%
Cc1cc(NC(=S)N(CCN2CCOCC2)Cc2ccccc2F)ccc1Cl
 : -4, -3.6%, -17%, -2%
Cc1ccc(NC(=O)CN(C)C(C)C(=O)N2CC(C)CC(C)C2)cc1 (stereo unspecified)
 : /, -1.2%, 0%, /
Cc1ccc(S(=O)(=O)N2CCC3(CC2)OCCO3)s1
 : /, -1.9%, 6%, -4%
CC(=O)Nc1ccc(NC(=O)C(C)OC(=O)CC2CCCC2)cc1 (stereo unspecified)
 : /, 1.2%, 17%, /
Cc1cccc(N(C(=O)Nc2ccc(Cl)cc2)C2=NCC(C)S2)n1 (stereo unspecified)
 : 11, -1.9%, 15%, -19%
Cc1cccc(CC(=O)N2CCC(N3CCC(C(=O)N4CCOCC4)CC3)CC2)c1
 : 8, 0.1%, -1%, 0%
O=C(Cn1cncn1)c1ccccc1
 : 0, 0.0%, 2%, 3%
COc1ccc(N(C)S(=O)(=O)c2ccc3c(c2)NC(=O)CO3)c(OC)c1
 : /, -0.9%, -2%, 1%
O=C(NCCCn1ccnc1)C(=O)NC1CCCCC1
 : 7, -1.5%, -2%, 2%
CCN(CC)S(=O)(=O)c1cc(C)ccc1NC(=S)Nc1cccnc1
 : -10, 2.5%, -5%, 21%
O=C(NC1CCN(C(=O)Nc2ccccc2)CC1)C1CCCCC1
 : 1, -3.6%, -6%, -3%
O=C(NCc1ccc[n+](CCCCS(=O)(=O)[O-])c1)c1ccc(OC(F)F)cc1
 : 0, /, /, 0%
C[C@@H](NC(=O)[C@@H]1Cc2ccccc2CN1)C(=O)Nc1ccc2c(c1)OCO2
 : /, 0.0%, -1%, -29%
CCOc1ccccc1NC(=O)Nc1ccc(OC)nc1
 : /, -0.3%, 6%, -11%
O=C(Nc1c(-c2ccccc2)nc2c(Br)cc(Br)cn12)c1ccco1
 : 0, 0.0%, 0%, -10%
CCOC(=O)/C=C1\SCC(=O)N1CC(O)CN1C(=O)CS/C1=C\C(=O)OCC
 : 6, -0.5%, -2%, 0%
O=C1C2C(C(=O)N1Cc1cccnc1)C1C=CC2C12CC2 (stereo unspecified)
 : -7, 0.6%, 16%, 0%
CC(=O)c1ccccc1Oc1ncnc(N)c1[N+](=O)[O-]
 : /, 0.6%, 6%, -6%
CC1CCc2c(nc3ncnn3c2NCCN(C)C)C1 (stereo unspecified)
 : 2, -2.1%, 20%, 0%

(further entries)
SMILES	GLA inh pH 4.5	Rango-impB inh	Rango release inh	miR-21 reporter
Cc1ccc(/C=N/NC(=O)c2nnn(-c3nonc3N)c2C(C)C)s1	/	-1.8%	-9%	-9%
O=C(N/C(=C\c1ccccc1)C(=O)N1CCOCC1)c1ccccc1Br	/	1.7%	-7%	-2%
COc1ccc(-n2c(SCC(=O)Nc3nccs3)nnc2-c2ccccc2)cc1	-5	-0.4%	2%	-2%
O=C1ON=C(c2ccc(Cl)c([N+](=O)[O-])c2)/C1=C/c1cccc([N+](=O)[O-])c1O	/	-0.9%	3%	/
CCSc1nc2sc3c(c2c(=O)n1-c1ccccc1)CCN(C)C3	/	?	-22%	1%
O=c1cc(-c2ccccc2[N+](=O)[O-])oc2ccccc12	9	-2.6%	-2%	2%
CCCCn1c(N)c(N(CC(C)C)C(=O)c2ccc(C)c(S(=O)(=O)N3CCCCC3)c2)c(=O)[nH]c1=O	/	-0.7%	-2%	/
COc1ccc(NC(=O)CN(C)C(=O)CCCc2nc3ccccc3c(=O)[nH]2)cc1	/	-4.5%	7%	/
CC(C)CCNC(=O)CN(C(=O)CCC(=O)Nc1nccs1)c1ccc2c(c1)OCCO2	/	-3.9%	4%	-27%
Cc1oc(-c2ccc(Cl)cc2)nc1CS(=O)CC(=O)NC1CCCC1 (stereo unspecified)	/	-0.7%	29%	1%
Cc1cccc(NC(=O)CN2C(=O)NC(Cc3ccccc3)C2=O)c1 (stereo unspecified)	-8	0.8%	-4%	0%
CCc1ccc(C(=O)OCC(=O)Nc2cccc(S(=O)(=O)NC3=NCCCCC3)c2)cc1	-8	?	6%	-9%
OC1(c2ccccc2)c2ccccc2-c2ncccc21 (stereo unspecified)	-6	-4.5%	-3%	-5%
O=C(NCc1ccc(Cl)cc1)C1CCN(S(=O)(=O)c2cc([N+](=O)[O-])ccc2Cl)CC1	0	0.6%	-5%	-2%
CC1=NN(c2ccc(C)c(C)c2)C(=O)/C1=C\C=C\c1ccc([N+](=O)[O-])o1	10	0.6%	-17%	28%
CCN(CC)CC(=O)Nc1c(Br)ccc2c1OCO2	4	1.6%	-5%	-5%
O=S(=O)(Nc1cccc(-c2ccc(N3CCCCCC3)nn2)c1)c1ccc(F)cc1	/	-1.5%	12%	-64%&-48%
O=C(NNc1ccccc1)Nc1ccccc1F	/	1.9%	-2%	-8%
O=C1c2ccsc2SCCN1Cc1ccccc1Cl	6	2.8%	-6%	-2%
CCOc1ccccc1C=NNc1ccc([N+](=O)[O-])cn1	/	?	?	/
Nc1cccc2c1C(=O)N(Cc1cccc(Cl)c1)C2=O	2	?	?	-19%
CCn1cc(C(=O)O)c(=O)c2cnc(N3CCN(C(=S)Nc4ccccc4)CC3)nc21	-6	-0.1%	4%	3%
O=C(CCNC(=O)c1ccc(Br)cc1)NCC(c1ccco1)N1CCCCC1 (stereo unspecified)	/	0.7%	4%	/
Oc1ccc2ccccc2c1CN1CCCCC1	/	6.8%	-1%	/

Not a retest: entries from further up.
SMILES	GLA inh pH 4.5	Rango-impB inh	Rango release inh	miR-21 reporter
CCN(c1ccccc1)S(=O)(=O)c1ccc(OC)c(NC(=O)CNC)c1	3	-0.4%	-10%	20%
COc1ccc(S(N)(=O)=O)cc1C(N)=O	0	-0.3%	1%	1%

The list is partial, so the mix of outcomes need not match the whole.
